Screening data from PubChem BioAssay.
HCMV UL50-53 inh – cytomegalovirus nuclear egress complex inhibition. HTRF UL50-UL53 interaction, normalized percent inhibition. inhibition, % (no concentration beside the values). 190,000 compounds, 0.15% hits. AID 1918969;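 active = both replicates at 50% or more, plus weaker picks with an unusually low signal ratio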;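 note: stock transfer was 100 nL into about 20 µL; 0% = negative control wells and 100% = wells with untagged competitor protein; inactives centre near -12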
Sa growth 42C – inhibitors of Staphylococcus aureus growth at 42 °C; S. aureus RN4220 growth, OD600, 20 h; active compounds read low; relative growth, % (no concentration beside the values); 170,000 compounds, 0.53% hits; AID 720641;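 active = growth at 42 °C up to 50% and 20 or more points under that at 30 °C, or under 10% at both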;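 note: 300 nL library stock went into each well; scaled to the means of positive and negative controls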
GIV Gai3 FP – blocks GIV peptide binding to rat Galpha-i3; percent of control (FP), % (concentration not given with the values); AID 1224905; Galpha-i3/FITC-GIV peptide fluorescence polarization, 90 min; active compounds read low; scaled: aluminum fluoride 0%, vehicle 100%; 210,000 compounds, 0.42% hits;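 active = replicate mean at 85% of control or lower, very high polarization wells dropped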;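 note: wells of about 15 µL received 100 nL stock; the first replicate is given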
Target sequence (P08753 whole entry, looked up): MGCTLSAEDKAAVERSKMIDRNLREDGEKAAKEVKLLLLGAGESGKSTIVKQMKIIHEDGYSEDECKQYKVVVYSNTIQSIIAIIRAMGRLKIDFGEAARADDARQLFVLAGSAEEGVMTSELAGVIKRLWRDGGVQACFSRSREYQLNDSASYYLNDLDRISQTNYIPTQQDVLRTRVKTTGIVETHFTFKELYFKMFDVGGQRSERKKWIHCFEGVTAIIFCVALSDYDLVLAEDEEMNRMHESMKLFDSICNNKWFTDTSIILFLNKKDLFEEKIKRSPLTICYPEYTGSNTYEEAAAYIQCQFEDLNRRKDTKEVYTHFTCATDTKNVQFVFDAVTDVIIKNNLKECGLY
Sa growth 42C second temp – also measured in Sa growth 42C; calls as there; relative growth, %; measured here: growth at 30 °C;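 optical density after 20 h as mean of two plates; 100% = untreated growth and lower means inhibition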
* = called active by the depositor; / = not tested or not shown; & = joins results of further samples.

SMILES	HCMV UL50-53 inh	Sa growth 42C	Sa growth 42C second temp	GIV Gai3 FP
Cc1ccc2c(c1)C(Cc1ccsc1)C(=O)N2 (stereo not given)	-12	/	/	102
COc1ccc2cc3n(c2c1)CC(C)(C(=O)NC1CCCC1)N(C1CCCC1)C3=O (stereo not given)	-1	/	/	103
COc1ccc(S(=O)(=O)Nc2cc3c(cc2Sc2ccccc2)n(C)c(=O)n3C)cc1	-27	/	/	108
CCOc1ccccc1NC(=O)C1=C(C)Nc2ncnn2C1c1ccco1 (stereo not given)	/	98	88	102
Cc1nn(-c2ccccc2)c2c1C(c1cccnc1)C1=C(CCCC1=O)N2 (stereo not given)	-31	/	/	100
CCN(CC)S(=O)(=O)c1cccc(-c2nnc(SCc3c(C)noc3C)n2CCc2ccccc2)c1	4	127	72	/
CCCCOc1ccc(CNC(=O)C2COc3ccc(OC)cc3C2)cc1 (stereo not given)	/	104	105	100
C=CCSc1ncc(Cl)c(C(=O)NCc2ccc3c(c2)OCO3)n1	-26	85	79	104
COCCNC(=O)c1cc(Br)cs1	-2	118	108	104
COc1nncc(-c2cnnc(SC)n2)n1	63	0.1*	1.4*	/
O=C1CSC(N(CC(=O)N2CCc3ccccc32)Cc2ccccc2)=N1	-18	102	96	/
COc1ccc(NC(=O)CS(=O)(=O)c2ccc3c(c2)S(=O)(=O)N=CN3)cc1	-18	95	92	105
O=C(COc1nncc2ccccc12)Nc1ccc(F)c(F)c1	-19	80	85	/
CCSc1nc(C)c2cc(OC)ccc2n1	/	115	96	103
CCOc1ccc(CCNC(=O)c2cc3cccc4c3n2CCS4)cc1	/	132	93	104
CCOC(=O)c1cccc(NC(=O)Cc2ccc(NC(=O)N3CCCCc4ccccc43)cc2)c1	/	95	89	103
COc1cccc(CNC(=O)c2cc(C)nc3c2c(C)nn3-c2ccc(C)cc2)c1	/	102	81	101
CCc1cccc(C)c1NC(=O)c1ccc2c(c1)CCN2S(=O)(=O)CC	-10	102	92	103
C=CCSc1nc2ccccc2c(=O)n1CC1CCCO1 (stereo not given)	-20	92	72	99
Cc1sc(NC(=O)/C=C/C(=O)O)c(C#N)c1C	/	98	84	117
OCCNC(=S)Nc1cccc(-c2n[nH]c(=S)o2)c1	-5	/	/	100
CCOC(=O)CNC(=O)Nc1nc2c(s1)CCCCCC2	-20	/	/	102
CCN(CC)CCOc1ccc(/C(=C(\Cl)c2ccccc2)c2ccccc2)cc1	-18	91	86	/
N#CCn1cc(C(=O)C(F)(F)F)c2ccccc21	2	93	86	119
CCN=C1S/C(=C\c2ccc(Oc3ccc([N+](=O)[O-])cc3C#N)c(OC)c2)C(=O)N1CC	-19	/	/	106
(cont.)
SMILES	HCMV UL50-53 inh	Sa growth 42C	Sa growth 42C second temp	GIV Gai3 FP
Cc1ccc(N2C(=O)N(c3ccccc3)C(=N)C2=S)cc1Cl	-47	104	88	102
COc1ccc(C(=O)Nc2ccc(-c3nc4ccccc4s3)c(Cl)c2)cc1Cl	-89	86	94	103
O=C1CSC(c2ccc(Cl)cc2)N1CCN1C(=O)CSC1c1ccc(Cl)cc1 (stereo not given)	-7	88	90	104
Cn1ccnc1-c1nc2ccccc2[nH]c1=O	-107	80	59	/
CCN(CC)C(=O)CCc1nc(-c2cc3ccc(C)cc3[nH]c2=O)no1	-68	/	/	103
COc1ccc(/C=C(/NC(=O)c2ccccc2)C(=O)N2CC(C)OC(C)C2)cc1 (stereo not given)	/	94	77	102
O=c1n(Cc2ccc(Br)cc2)nnn1-c1ccccc1	-19	100	89	/
COC(=O)c1ccc(NC(=O)C2COc3ccccc3O2)cc1 (stereo not given)	-12	/	/	101
Cc1cc(S(=O)(=O)Nc2cc3c(cc2N2CCCCC2)n(C)c(=O)n3C)ccc1F	-22	/	/	103
CCc1ccc(C2c3c(-c4ccccc4)n[nH]c3C(=O)N2c2ccc(C(=O)O)cc2)cc1 (stereo not given)	-33	96	90	107
COc1ccc(OC)c(NC(=O)c2c(NCc3cccs3)sc3c2CCCC3)c1	/	79	95	104
Clc1ccc(Nc2cc(-c3ccccc3)nc3ncnn23)cc1	44	101	92	102
Cn1c(C(=O)O)cc2ccccc2c1=O	-2	90	93	/
CCOC(=O)N1CCC(NC(=O)CCn2cccc2)CC1	-5	102	94	99
O=C(O)/C(=C/C(=O)c1ccc(F)cc1)Nc1ccc2[nH]c(=O)[nH]c2c1	/	94	89	140
O=C1CCc2cc(S(=O)(=O)NCc3ccccc3Cl)cc3c2N1CC3	/	121	80	100
Cc1cc(NC(=O)COC(=O)C2(c3ccc(Cl)cc3)CCCC2)no1	-19	98	88	/
CCN(CC)c1ccc2cc(-c3nc(-c4ccc(Cl)cc4Cl)cs3)c(=O)oc2c1	/	92	91	-69*
COc1ccc(-c2cn3c(n2)sc2cc(C(=O)NCc4ccccc4OC)ccc23)cc1	/	109	86	107
O=C(CC(C(=O)O)C1CCCO1)Nc1cccc(C(F)(F)F)c1 (stereo not given)	-13	103	92	97
CCC(=O)N(Cc1cc2ccc(C)cc2n2nnnc12)C1CCCCC1	-24	86	93	103
S=c1oc(C2COc3ccccc3O2)nn1CN1CCN(C/C=C/c2ccccc2)CC1 (stereo not given)	-27	74	58	/
CN1C(=O)c2cc(NC(=O)c3ccc(N(C)C)cc3)ccc2N2CCN=C12	-33	/	/	99
Cc1ccc2c(c1)NC(=O)c1cc(S(=O)(=O)N3CC(C)OC(C)C3)ccc1O2 (stereo not given)	-17	97	92	105&105
CCCCNC(=O)Cc1ccc(Br)cc1	3	80	115	106

Entries above with a CF3 group:
SMILES	HCMV UL50-53 inh	Sa growth 42C	Sa growth 42C second temp	GIV Gai3 FP
N#CCn1cc(C(=O)C(F)(F)F)c2ccccc21	2	93	86	119
O=C(CC(C(=O)O)C1CCCO1)Nc1cccc(C(F)(F)F)c1 (stereo not given)	-13	103	92	97

Further records follow.
SMILES	HCMV UL50-53 inh	Sa growth 42C	Sa growth 42C second temp	GIV Gai3 FP
CC1(C)C(=N)N(c2ccccc2)C(=O)N1c1ccccc1	/	94	82	96
COC(=O)c1ccccc1NC(=O)N1CCC(CN2CCOCC2)CC1	/	89	80	104
CCCc1cc2c(=O)c(-c3ccc4c(c3)OCCCO4)coc2cc1OC(C)C(=O)OC (stereo not given)	-4	/	/	99
COCCOC(=O)C1=C(C)NC2=C(C(=O)CC(c3ccc(OC)c(OC)c3)C2)C1c1ccccc1C (stereo not given)	-33	/	/	99
Cc1cccc(N2CCN(C(=O)CCNS(=O)(=O)c3cccc4nsnc34)CC2C)c1 (stereo not given)	-95	95	72	100
O=C(c1c[nH]c2ccc(Cl)cc2c1=O)N1CCOCC1	-13	/	/	97
O=C(c1cccc(C(F)(F)F)c1)C1CCN(C(=O)N2CCOCC2)CC1	-1	93	77	103
COc1ccc2c(c1)sc1nc(-c3ccsc3)c(Nc3ccccc3C)n12	0	/	/	100
CCN1C(=O)/C(=c2\sc3n(c2=O)C(c2ccc(OC)cc2)C(C(=O)OC)=C(C)N=3)c2ccccc21 (stereo not given)	-18	/	/	103
COc1ccc(NC(=O)c2cc(-c3ccccc3F)no2)cc1	/	104	102	108
Cc1ccccc1Cc1c(C)nc2c(C(=O)NC3CC3)cnn2c1C	6	99	96	109
CC(=O)Nc1ccc(NC(=O)Cn2cc(-c3nnc(C)o3)c3ccccc32)cc1	-24	/	/	100
COc1ccc(CNS(=O)(=O)N(C)C)cc1	-9	102	85	/
Cc1ccc(CNC(=O)Cc2ccc(-n3cccc3)cc2)cc1	-7	103	91	104
C=C(C)CC1(CC(=C)C)CCCCN1	22	95	78	99
Cc1ccc2nc(CCCC(=O)OC(C)C)[nH]c2c1	-20	89	78	97
CS(=O)(=O)c1ccc2nc(NC(=O)CS(=O)(=O)c3ccc(Cl)cc3)sc2c1	/	118	97	102
COc1cccc(CNC(=O)CCc2c(C)nc3c(c(C)nn3-c3ccc(C)c(C)c3)c2C)c1	-4	98	86	104
CC1CCCCC1NC(=O)c1ccc(/C=C2/Sc3ccccc3NC2=O)cc1 (stereo not given)	/	118	89	101
O=C1c2ccccc2C(=O)N1CCSC1=Nc2ccccc2C2CC=NN12 (stereo not given)	-11	92	92	/
Cc1ccc(Cl)cc1NC(=O)c1csnn1	-31	101	82	101
O=C(CSc1nc2c(oc3ccccc32)c(=O)n1-c1ccccc1)Nc1ccc(F)c(Cl)c1	-27	94	78	103
Cc1noc2nc(-c3cccs3)cc(C(F)(F)F)c12	-36	119	84	/
O=C1CC(c2coc3ccccc3c2=O)Sc2ccccc2N1 (stereo not given)	-22	94	92	106
Cc1cc(NCCOCCO)n2nc(C(F)(F)F)c(-c3ccc(F)cc3)c2n1	-9	/	/	104
(listing goes on)
SMILES	HCMV UL50-53 inh	Sa growth 42C	Sa growth 42C second temp	GIV Gai3 FP
O=C(NC1CCCC1)c1csc2c1CCCC2	-28	92	84	104
Cn1c(SCc2ccccc2)nnc1C1CCCN1S(C)(=O)=O (stereo not given)	-5	126	89	98
CC(C)n1c(-c2ccccc2)nc(=S)c2c1CCCC2	-27	100	82	105
CC(C)N1C(=O)CC(N2CCOCC2)C1=O (stereo not given)	-28	108	101	103
CCN(Cc1ccccc1)C(=O)CCc1nc(CN2CCN(S(=O)(=O)c3ccc(Cl)cc3)CC2)no1	-4	/	/	103
COc1ccc(C(=O)OCC2CC(c3ccccc3)=NO2)cc1OC (stereo not given)	/	94	92	101
COc1ccccc1-c1c(C)nn2c(N3CCN(c4ccc(Cl)cc4)CC3)cc(C)nc12	/	85	94	100
Cc1cccc(C)c1NC(=O)C1C2C=CC(C2)C1C(=O)O (stereo not given)	-4	100	83	97
CN(C)C(=O)N1CCC(C(=O)N2CCC3(CC2)OCCO3)CC1	/	104	90	104
Cc1ccc(Nc2cnn(-c3nc4ccccc4o3)c(=O)c2Cl)cc1F	-5	94	88	99
COc1ccc(NC(=O)Cc2ccc(-n3c(C)nc4cccnc43)cc2)cc1Cl	-4	/	/	112
CC(C)C(=O)Nc1nnc(S(=O)(=O)N2CCc3ccccc32)s1	-21	83	91	105
CCN(c1ccccc1)c1nnc(NC(=O)Nc2ccc(C)cc2)s1	-11	124	89	104
O=C1NC(=O)C(=Cc2ccc(N3CCCC3)cc2)C(=O)N1	-4	124	88	99
CSc1ccccc1C(=O)N1CC(C)OC(C)C1 (stereo not given)	-30	97	98	100
CCc1ccc(-c2cc(C)no2)cc1S(=O)(=O)N1CCN(c2cccc(Cl)c2)CC1	/	89	82	101
CC1=C(c2ccc(Cl)cc2)S(=O)(=O)N=C1N1CCC(C(=O)NCc2ccccc2F)CC1	/	89	85	100
CCOC(=O)c1cc2c(ccn2-c2ccc(F)cc2)n1CC(=O)N1CCc2ccccc21	-6	104	83	99
Cc1ccc(S(=O)(=O)NCc2c(C)nn(C)c2C)cc1	-30	95	86	106
CCOc1ccc(CNC(=O)c2ccc3c(c2)sc2nc(-c4ccccc4)cn23)cc1	/	113	92	106
COC(=O)c1ccc(COC(=O)Cc2n[nH]c(=O)c3ccccc23)o1	-33	69	94	/
O=C(Sc1ccc(Cl)cc1)c1ccc(-c2cccs2)s1	-12	107	96	106
Cc1cc(C)c(C#N)c(SCC(=O)n2nc(C)cc2C)n1	-44	92	84	108
O=C(NCC(c1ccco1)N1CCc2ccccc2C1)c1ccccc1 (stereo not given)	-29	94	81	98
O=C(NCc1n[nH]c(=O)c2ccccc12)c1ccco1	-16	95	91	103
More structures:
SMILES	HCMV UL50-53 inh	Sa growth 42C	Sa growth 42C second temp	GIV Gai3 FP
O=C(NNc1nc2c(F)cccc2s1)c1ccc(S(=O)(=O)N2CCCC2)cc1	-26	86	76	100
COc1cc(OC)c(OC)cc1/C=C/C(=O)N1CCN(C)CC1	-36	94	96	/
O=C(CN1C(=O)CCn2nc(-c3ccc(Cl)cc3)cc21)N1CCCC1	-11	/	/	108
Cc1cccnc1/N=C/c1c(O)n(-c2ccccc2F)c(=O)c2ccccc12	-2	100	88	/
CCOc1ccc(OCC)c(NC(=O)CSCCc2ccccn2)c1	-9	87	81	105
CNC(=O)c1cc2c(s1)CCCCCC2	-5	109	104	103
CCN(C(=O)CSc1ccccn1)c1c(N)n(Cc2ccccc2)c(=O)[nH]c1=O	2	96	103	/
Cc1cccc(C(=O)Nc2nnc(Cc3nc4ccccc4[nH]3)s2)c1	-16	/	/	109

An excerpt from above in order of the Sa growth 42C value, highest first:
mol	Sa growth 42C	Sa growth 42C second temp	GIV Gai3 FP
CNC(=O)c1cc2c(s1)CCCCCC2	109	104	103
Cc1cccnc1/N=C/c1c(O)n(-c2ccccc2F)c(=O)c2ccccc12	100	88	/
CCN(C(=O)CSc1ccccn1)c1c(N)n(Cc2ccccc2)c(=O)[nH]c1=O	96	103	/
COc1cc(OC)c(OC)cc1/C=C/C(=O)N1CCN(C)CC1	94	96	/
CCOc1ccc(OCC)c(NC(=O)CSCCc2ccccn2)c1	87	81	105
O=C(NNc1nc2c(F)cccc2s1)c1ccc(S(=O)(=O)N2CCCC2)cc1	86	76	100

Grouped by structure, the entries above containing bromine
SMILES	HCMV UL50-53 inh	Sa growth 42C	Sa growth 42C second temp	GIV Gai3 FP
COCCNC(=O)c1cc(Br)cs1	-2	118	108	104
O=c1n(Cc2ccc(Br)cc2)nnn1-c1ccccc1	-19	100	89	/
CCCCNC(=O)Cc1ccc(Br)cc1	3	80	115	106

Entries of single compounds, quoted from the list. Order of screens: HCMV UL50-53 inh	Sa growth 42C	Sa growth 42C second temp	GIV Gai3 FP
Cc1cccc(C(=O)Nc2nnc(Cc3nc4ccccc4[nH]3)s2)c1 in the list: -16	/	/	109
CNC(=O)c1cc2c(s1)CCCCCC2 in the list: -5	109	104	103
O=C(NNc1nc2c(F)cccc2s1)c1ccc(S(=O)(=O)N2CCCC2)cc1 in the list: -26	86	76	100
